Rango dissoc inh – qHTS Assay for Inhibitors of RanGTP induced Rango (Ran-regulated importin-beta cargo) - Importin beta complex dissociation | Biochemical FRET Rango-importin beta, RanGTP-induced dissociation | AID 540253, 2011 | Snurportin-1 (Homo sapiens) + GTP-binding nuclear protein Ran (Homo sapiens) + Importin … | Potency, µM (series often up to 46.1 µM), without a hit: at the top dose activity change, negative = inhibition | hit rate 0.071% among 340,000; active means falling FRET ratio curve, often poorly fitted, with flat reads before Ran was added; inconclusive means other falling curves, or compound fluorescence or quenching; inactive means flat or rising ratio curve;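 also: potency is read from the fitted curve at half-maximal effect; % of control where 0% means no effect; nearly all actives have a fitted effect of over 45% in size; -100% = wells without RanGTP and RCC1; the record marks most hits as doubtful in a second field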
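Compounds preincubate 5 min with complex of recombinant Rango and importin beta in PBS with 1 mM DTT. Ran (0.6 uM) loaded with 2 mM GTP plus 0.2 uM RCC1 starts dissociation; FRET is recorded 45 min later.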
Rango complex inh – qHTS Assay for Inhibitors of Rango (Ran-regulated importin-beta cargo) - Importin beta complex formation | Importin subunit beta-1 (Homo sapiens), Q14974 | AID 540263, 2011 | Potency, µM (doses to about 92.2 µM), for inactives: at the highest dose inhibition of complex formation | Rango CFP/YFP FRET sensor + importin beta, 45 min | hit rate 0.031% among 340,000; active = rising FRET ratio curve, often small or poorly fitted; inconclusive = mostly compound fluorescence or quenching in the first reads; inactive = flat curves in all reads;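 also: potency is read from the fitted curve at half-maximal effect; 0% = DMSO wells and 100% = buffer wells lacking importin beta; nearly all actives have a fitted effect of over 15% in size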
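Inhibition scored from the CFP 486 nm/YFP 530 nm FRET ratio 45 min after adding 0.125 microM importin beta to 50 nM Rango biosensor preincubated 5 min with compound (room temperature, PBS with DTT, Tween-20, BSA). No-importin wells as positive control.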
GLA inh pH 4.5 – qHTS Assay for Inhibitors of Human alpha-Galactosidase at pH 4.5. purified enzyme, 4-MU-alpha-Gal fluorescence, pH 4.5. activity change, negative = inhibition, % at 105 µM. 230,000 tested, under 10 active; inconclusive = small, poorly fitted or top-dose-only inhibition, or a rising curve; inactive = flat fitted curve, though single readings scatter; no compound was filed as active;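 also: 0% = full activity with enzyme and -100% = basal without enzyme; dose as in the result columns while the protocol names 77 µM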
Target sequence (P06280 whole entry, looked up): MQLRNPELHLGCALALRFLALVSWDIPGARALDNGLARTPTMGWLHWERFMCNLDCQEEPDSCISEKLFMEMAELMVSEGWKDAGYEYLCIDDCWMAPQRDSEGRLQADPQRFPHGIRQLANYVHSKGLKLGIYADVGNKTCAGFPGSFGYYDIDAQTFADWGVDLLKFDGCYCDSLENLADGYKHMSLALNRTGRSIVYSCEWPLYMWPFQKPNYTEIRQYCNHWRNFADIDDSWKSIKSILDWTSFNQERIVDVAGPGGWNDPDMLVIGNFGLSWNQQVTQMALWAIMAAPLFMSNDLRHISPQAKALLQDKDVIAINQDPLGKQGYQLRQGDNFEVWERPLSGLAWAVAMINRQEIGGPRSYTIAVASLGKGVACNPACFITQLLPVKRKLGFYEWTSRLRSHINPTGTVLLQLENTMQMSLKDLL
miR-21 FLuc – qHTS Assay for Modulators of miRNAs and/orActivators of miR-21; Potency, µM (highest dose often 38.3 µM), for inactives: at the highest dose reporter change, positive = more light; HeLa miR-21 FLuc reporter, luciferase, 48 h; 340,000 tested, under 10 active; active = well fitted rising curve with a large enough effect; inconclusive = small, poorly fitted or top-dose-only effect; inactive = no such curve, though single readings can be large or run the other way;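 also: % of control where 0% means no effect; miR-21 action dims this reporter so a rising signal means less miR-21 action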
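HeLa cells endogenously expressing miR-21, stably carrying CMV-driven firefly luciferase with a downstream miR-21 binding site, 2000 cells/well. Titrations up to approximately 40 uM, 48 hours; luciferase luminescence read.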
* hit, by the source's call; ? = inconclusive; / = no result given; & = joins results of further samples. An excerpt. The share of hits here may be higher or lower than overall.

miR-21 FLuc | Rango complex inh | Rango dissoc inh | GLA inh pH 4.5 | Molecule
/ | -7.5% | 1% | / | O=C(CNC(=O)c1ccc(Cl)cc1)OCn1nnc2ccccc2c1=O
-3% | -0.5% | -12% | / | CC(Sc1nc(N)cc(=O)[nH]1)C(=O)Nc1nc2c(s1)CCCC2 (configuration not stated)
1% | 1.2% | 1% | -9 | CC(C)(C)OC(=O)N1CCC(C(=O)O)CC1
/ | 9.3% | 1% | / | CN(Cc1cccs1)S(=O)(=O)c1ccc(Cl)cc1F
9% | 3.3% | 0% | -2 | COC(=O)c1c(C)oc(C)c1S(=O)(=O)N(Cc1ccccc1)C(C)C
-7% | 0.1% | 3% | 6 | Cc1ccc2nsnc2c1NC(=O)COc1ccccc1F
-2% | -5.2% | 26% | / | Cc1ccc2c(c1)N(C(=O)CCC(=O)NCCN1CCOCC1)CC(C)O2 (configuration not stated)
0% | -1.9% | -15% | 2 | C=CCn1c(SCC(N)=O)nc2nc3c(cc2c1=O)COC(C)(C)C3
-1% | 0.6% | -19% | -3 | Cc1ccc(CN2CCN(C/C(Cl)=C/c3ccccc3)CC2CCO)o1 (configuration not stated)
-58% | 0.9% | 15% | -20 | Cc1cc(Cl)ccc1OCC(=O)N1CCCCC1
2% | -4.5% | 13% | 0 | C/C(=N\NC(=S)NC1CCCCC1)c1cccs1
-11% | -1.0% | 0% | 4 | Cc1nnc(N2CCOCC2)c2ccccc12

Next part (7 carried over from the part before).
miR-21 FLuc | Rango complex inh | Rango dissoc inh | GLA inh pH 4.5 | Molecule
-7% | 0.1% | 3% | 6 | Cc1ccc2nsnc2c1NC(=O)COc1ccccc1F
-2% | -5.2% | 26% | / | Cc1ccc2c(c1)N(C(=O)CCC(=O)NCCN1CCOCC1)CC(C)O2 (configuration not stated)
0% | -1.9% | -15% | 2 | C=CCn1c(SCC(N)=O)nc2nc3c(cc2c1=O)COC(C)(C)C3
-1% | 0.6% | -19% | -3 | Cc1ccc(CN2CCN(C/C(Cl)=C/c3ccccc3)CC2CCO)o1 (configuration not stated)
-58% | 0.9% | 15% | -20 | Cc1cc(Cl)ccc1OCC(=O)N1CCCCC1
2% | -4.5% | 13% | 0 | C/C(=N\NC(=S)NC1CCCCC1)c1cccs1
-11% | -1.0% | 0% | 4 | Cc1nnc(N2CCOCC2)c2ccccc12
-28% | -1.4% | 5% | 10 | COCC(C)n1c(C)cc(C(=O)CSc2ncccn2)c1C (configuration not stated)
0% | ? | ? | -3 | CCOc1cc(/C=N\Nc2ccc([N+](=O)[O-])cc2)ccc1OCC(=O)Nc1ccc(C)c(C)c1
-8% | 0.0% | 14% | -19 | CCOc1ccc(-c2nnc3sc(COc4ccccc4)nn23)cc1
11% | -1.9% | -17% | / | NC(=O)c1cc(S(=O)(=O)NCCCc2ccco2)cs1
-15% | 5.1% | -14% | / | CN1CCN(c2ccc(NC(=S)NC(=O)/C=C/c3ccco3)cc2)CC1
-4% | 3.1% | 0% | -1 | O=C(O)C(Cc1c[nH]c2ccccc12)NS(=O)(=O)c1cccc2nsnc12 (configuration not stated)
1% | 1.8% | 26% | -3 | C=CCNC(=O)/C(C#N)=C/c1c(C)nn(-c2ccc(Cl)cc2)c1Cl
/ | 0.1% | 13% | / | Cc1ccc(C(=O)C=Cc2cccc(C)c2)cc1
/ | -3.1% | 5% | / | O=C(Cc1ccc(NC(=O)C2CCCN(C(=O)C3CCC3)C2)cc1)Nc1cccc(C(=O)N2CCCC2)c1 (configuration not stated)
-35% | ? | -27% | 0 | O=C(O)c1ccc(N/N=C/c2ccc(-c3ccccc3)cc2)cc1
-1% | -0.9% | ? | -4 | O=C(O)C(Cc1c[nH]c2ccccc12)NS(=O)(=O)c1ccc2ccccc2c1 (configuration not stated)
-1% | 0.2% | 7% | 4 | CCCCn1c(=O)c(-[n+]2ccccc2)c([O-])c2ccccc21
-44% | -4.2% | 10% | -1 | C=CCNC(=S)/N=c1/scc(C)n1C
1% | -0.3% | 11% | 6 | COC(=O)C(NNc1ccccc1)(NC(=O)c1cccc(F)c1)C(F)(F)F (configuration not stated)
3% | ? | ? | 1 | Cc1c(S(=O)(=O)c2ccccn2)c(N)n(Cc2cccc(Cl)c2)c1C
10% | ? | ? | -27 | CCOC(=O)C1C(=O)C=C(c2ccc(NS(C)(=O)=O)cc2)CC1c1ccco1 (configuration not stated)
-1% | 1.0% | -6% | / | CCCc1cc(=O)[nH]c(N2CCN(Cc3ccc4c(c3)OCO4)CC2)n1
/ | 2.5% | -4% | / | O=C(Nc1ccc2nc3n(c(=O)c2c1)CCCC3)c1cccnc1Cl
4% | -0.2% | 16% | 12 | O=C(CSc1ccccn1)Nc1ccc(NC(=O)CSc2ccccn2)cc1
-12% | 1.6% | -7% | / | CCCc1cc(C(=O)Cc2ccccn2)c(O)cc1O
-2% | -1.2% | 10% | 4 | Cc1ccc(Sc2cnc(N)nc2C)cc1
17% | 1.5% | -4% | 12 | COc1cc(C(=O)NC2CCN(Cc3nnnn3Cc3ccc(F)cc3)CC2)cc(OC)c1OC
6% | -3.2% | -23% | / | COc1ccc(OC)c(-c2nc(C(=O)NCCCN3CCOCC3)cc3c2[nH]c2ccccc23)c1
/ | -0.3% | -6% | / | CN(C)c1nc(N/N=C\c2ccc(Cl)c([N+](=O)[O-])c2)nc(Nc2ccc(F)cc2)n1
-4% | -2.0% | 42% | -1 | Fc1ccc(N/N=C2/CCSc3sccc32)c(F)c1
-5% | -0.3% | 15% | / | Nc1nc2c(nc(SCc3ccccc3Br)n2C2OC(CO)C(O)C2O)c(=O)[nH]1 (configuration not stated)
/ | 0.1% | -12% | / | CCC(Sc1ncccc1Nc1ccccn1)C(=O)O (configuration not stated)
0% | -1.8% | -7% | -1 | CCOC(=O)c1c(C)[nH]c(-c2csc(N)n2)c1C
0% | / | / | ? | COc1cccc(/C=C/C(=O)OCC(=O)Nc2ccc(Cl)cn2)c1
0% | -0.3% | 1% | 6 | O=c1c2cccnc2n(-c2ccccc2)n1Cc1c(Cl)cccc1Cl
5% | -1.2% | 1% | 5 | O=C(Nc1ccc(Cl)cc1)Nc1nnc(CSCc2ccccc2Cl)s1
-19% | / | / | 1 | O=c1c2ccccc2nc2n1CC/C2=C\c1ccccc1[N+](=O)[O-]
0% | -1.1% | -6% | 5 | CCCC(NC(=O)c1ccccc1)c1nc2ccccc2n1Cc1ccc(C(=O)OC)o1 (configuration not stated)
18% | 2.0% | -16% | -3 | Cc1cccc(OCc2n[nH]c(=S)n2C2CCCCC2)c1
-48% | -4.9% | 4% | 6 | CCOC(=O)C1(CCc2ccccc2)CCN(C(=O)Cc2nonc2C)CC1
17% | 0.2% | 0% | 3 | O=c1[nH]c(=O)n([C@H]2C[C@H](O)[C@@H](CO)O2)cc1C(F)(F)F
-1% | / | / | 13 | NC(=S)NNC(=O)c1cccc(Br)c1
-3% | -5.3% | 15% | -1 | Cc1ccc(NC2c3ncccc3C(=O)N2Cc2ccc(F)cc2)cc1 (configuration not stated)
-5% | ? | ? | -8 | O=c1c2oc3ccccc3c2[nH]c(=S)n1-c1ccccc1
-6% | -0.7% | -7% | / | CCSc1ncc(Cl)c(C(=O)Nc2ccccc2C)n1
/ | 2.9% | 16% | / | CCOC(=O)c1c(SCCN2CCCC2)n(-c2ccccc2)c(=S)n(-c2ccccc2)c1=O
-5% | / | / | -1&-1 | CCCCCCN(C(=O)CCCCCN1C(=O)NC(c2ccc(-c3ccccc3)cc2)C(C(=O)OCc2ccccc2)=C1C)C(C(=O)NCCCC)c1ccccn1 (configuration not stated)
1% | -1.0% | 7% | 2 | CCCNC(=S)Nc1ccc(S(N)(=O)=O)cc1
-2% | -5.1% | 9% | 6 | O=C(NC1CCCCC1)C1CCN(S(=O)(=O)c2cccc3cccnc23)CC1
/ | 5.0% | -15% | / | O=C(c1ccc(-n2cncn2)c([N+](=O)[O-])c1)N1CCN(S(=O)(=O)c2ccccc2F)CC1
? | -0.4% | -1% | -8 | Cc1ccc2nc(NC(=O)c3ccccn3)sc2c1
-5% | -1.6% | 2% | -8 | CN(CC(=O)Nn1cnnc1)S(=O)(=O)c1cc(Cl)ccc1Cl
-6% | 0.5% | 46% | / | CCn1cc(C(=O)NCCCN2CCCC(C)C2)c(=O)c2cc(S(=O)(=O)N3CCOCC3)ccc21 (configuration not stated)
? | ? | 5% | / | CCCOc1ccc(/C=N/Nc2cc(N3CCOCC3)ncn2)c(O)c1
0% | 0.9% | 15% | / | CCC(C)c1ccccc1NC(=O)c1cc(C)no1 (configuration not stated)
4% | -2.0% | 3% | 2 | O=C1Nc2ccccc2N(O)N1c1cc(-c2ccccc2Cl)no1
1% | -6.1% | 0% | -11 | CC(C)c1ccc(NC(=S)NCCc2c[nH]c3ccccc23)cc1
-12% | 2.5% | -1% | 1 | CC(=O)N(C)C1=C(O)c2ccccc2C(=O)C1=O
0% | 0.6% | 10% | / | CN(C(=O)CC1C(=O)NCCN1Cc1ccc(F)c(F)c1)C1CCCCC1 (configuration not stated)
1% | 0.2% | 2% | / | COc1ccccc1CNC(=O)COc1cc2c(c3oc(=O)cc(C)c13)CCC(C)(C)O2
-4% | -1.1% | -7% | / | COc1ccc(NC(=O)N2CCN(C(=O)C3CCCO3)CC2)cc1 (configuration not stated)
-15% | -0.1% | 26% | 0 | CCn1cc(/C=N\NC(=O)c2ccc3c(c2)c(C)c(C)n3Cc2ccccc2)c(C)n1
15% | 0.0% | -8% | / | COc1ccc(NC(=O)c2cccc(NC(=O)c3ccccc3)c2)c(OC)c1
/ | 3.5% | -14% | / | Cc1csc2nc(O)c(C(=O)NCc3ccc4c(c3)OCO4)c(=O)n12
-13% | -1.1% | -23% | -8 | O=C(Nc1cccc2nsnc12)c1cccnc1

Look-ups from the entries so far.
Reading of `CC(=O)N(C)C1=C(O)c2ccccc2C(=O)C1=O` in miR-21 FLuc: -12%
Reading of `CCC(C)c1ccccc1NC(=O)c1cc(C)no1` (configuration not stated) in Rango complex inh: 0.9%
Reading of `O=C(Nc1cccc2nsnc12)c1cccnc1` in Rango dissoc inh: -23%
Reading of `COc1ccccc1CNC(=O)COc1cc2c(c3oc(=O)cc(C)c13)CCC(C)(C)O2` in miR-21 FLuc: 1%

The main list resumes, starting 4 compounds before the break.
miR-21 FLuc | Rango complex inh | Rango dissoc inh | GLA inh pH 4.5 | Molecule
-15% | -0.1% | 26% | 0 | CCn1cc(/C=N\NC(=O)c2ccc3c(c2)c(C)c(C)n3Cc2ccccc2)c(C)n1
15% | 0.0% | -8% | / | COc1ccc(NC(=O)c2cccc(NC(=O)c3ccccc3)c2)c(OC)c1
/ | 3.5% | -14% | / | Cc1csc2nc(O)c(C(=O)NCc3ccc4c(c3)OCO4)c(=O)n12
-13% | -1.1% | -23% | -8 | O=C(Nc1cccc2nsnc12)c1cccnc1
18% | 0.6% | 2% | / | O=C(c1cc2ccccc2o1)N1CCN(c2cccc(C(F)(F)F)c2)CC1
8% | -3.0% | -2% | / | CCOC(=O)N1CCN(C(=O)CCC(=O)c2ccc(OCC)cc2)CC1
-48% | -3.3% | -18% | -2 | O=C(Nc1ccc2c(c1)nc1n2CCOC1)C1CCCCC1
-5% | 3.8% | 5% | 0 | CCOc1ccc(N(CC(=O)NC2CCCC2)C(=O)CCCC(=O)Nc2ccccn2)cc1
-17% | 1.3% | 6% | 7 | CC1CN(C(=O)c2cnn3c(C(F)F)cc(-c4ccccc4)nc23)CC(C)O1 (configuration not stated)
-5% | ? | 14% | 4 | CCN(CC)C(=O)COc1ccc(C=O)cc1OC
-16% | -1.7% | 18% | -2 | CC(C)CNc1nc(N)c([N+](=O)[O-])c(NCC2CCCO2)n1 (configuration not stated)
/ | -1.2% | -10% | / | CCC(=O)c1ccc(OCC(=O)NC2CCCC2)cc1
-3% | 5.8% | ? | 3 | CC(C)(C)NC(=O)C1Cc2ccccc2CN1S(=O)(=O)c1ccc(F)cc1 (configuration not stated)
-46% | 3.8% | 20% | 5 | CCN(CC)S(=O)(=O)c1ccc(NC(=O)c2ccccn2)cc1
-7% | -2.1% | 1% | -13 | COc1ccccc1NC(=S)N1CCc2cc(OC)c(OC)cc2C1

Screening results: PubChem BioAssay, National Center for Advancing Translational Sciences (NCATS)
